Screening results: PubChem, National Center for Advancing Translational Sciences (NCATS)
Cruzain Triton: qHTS Assay for Promiscuous and Specific Inhibitors of Cruzain (with detergent); Cruzipain (Trypanosoma cruzi), P25779; purified cruzain, Z-FR-AMC fluorescence, 0.01% Triton; Potency, µM, for the others: max response, negative = inhibition, actives largely listed as inhibitors; 200,000 tested, 0.43% active; active = well fitted curve in the direction sought with a large enough effect; inconclusive = small, poorly fitted or top-dose-only effect, or another doubt; inactive = no such curve, though single readings can be large; an effect the other way counts as inactive or inconclusive;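 also: plate controls were neutral wells for no effect and buffer without enzyme for full effect; nearly all actives have a fitted effect of over 40% in size; top concentration of the series not given in the record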
Target sequence (P25779 123-467 limits assumed): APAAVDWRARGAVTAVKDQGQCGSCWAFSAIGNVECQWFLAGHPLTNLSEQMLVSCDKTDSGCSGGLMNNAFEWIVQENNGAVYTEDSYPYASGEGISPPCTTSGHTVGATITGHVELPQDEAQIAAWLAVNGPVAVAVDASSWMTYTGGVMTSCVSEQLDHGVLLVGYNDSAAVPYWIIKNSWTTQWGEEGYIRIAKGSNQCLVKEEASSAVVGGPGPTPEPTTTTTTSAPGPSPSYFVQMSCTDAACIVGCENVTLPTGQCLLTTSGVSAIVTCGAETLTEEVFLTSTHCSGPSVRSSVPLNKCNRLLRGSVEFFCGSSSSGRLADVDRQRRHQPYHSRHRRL
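Cysteine protease activity tested under reducing, mildly acidic conditions (100 mM sodium acetate pH 5.5, 5 mM DTT) plus 0.01% Triton X-100. Cruzain 1.5 nM; substrate Z-FR-AMC 2 uM; 15 min compound preincubation at room temperature.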
2A StopGo: High Throughput Screening for Foot and Mouth Disease Virus Antivirals; human cells with a luciferase reporter of 2A StopGo recoding; control for the full effect not named in the record; 410,000 tested, 1.2% active; AID 1159524, 2015; Potency, µM (top dose mostly 57.9 µM), for inactives: top-dose signal change, negative = less light; active = well fitted falling curve with a large enough effect; inconclusive = small, poorly fitted or top-dose-only effect; inactive = no such curve, though single readings can be large or run the other way; tested in HEK293T cells; also: % is scaled to controls: 0 for no effect and ±100 for the full control effect; nearly all actives have a fitted effect of over 45% in size; luciferase light after 4 h
NS1 inh: qHTS Assay for Inhibitors of Influenza NS1 Protein Function; S. cerevisiae slowed by influenza A NS1, growth recovery by OD600; AID 2326, 2010; 270,000 tested, 0.4% active; Potency, µM (series often up to 46.1 µM), without a hit: at the highest dose activity, positive = more growth; also: actives are rising curves; nearly all actives have a fitted effect of over 50% in size
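Growth recovery, yeast-based: influenza A NS1 expressed in S. cerevisiae causes slow growth, and suppressors are detected by OD600. The parent strain without NS1 is used as positive control.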
RE007 growth inh: qHTS Assay for Inhibitors of the HIV-1 protein Vpr | S. pombe RE007 Vpr strain, BacTiter-Glo ATP luminescence, 24 h; control for the full effect not named in the record | Potency, µM (doses to about 92.2 µM), without a hit: top-dose activity change, negative = less growth | 360,000 tested, 0.21% active | AID 651644, 2012; active = well fitted falling curve with a large enough effect; inconclusive = small, poorly fitted or top-dose-only effect; inactive = no such curve, though single readings can be large or run the other way;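 also: % is scaled to controls: 0 for no effect and ±100 for the full control effect; nearly all actives have a fitted effect of over 50% in size; the assay follows cell death caused by Vpr and the record does not say whether a fall means rescue or toxicity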
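Fission yeast strain RE007, carrying one chromosomally integrated HIV-1 vpr copy, was seeded at OD 0.01 in PMG+AL medium with 23 nL pinned compound. After 24 h at 30 °C and 99% humidity, viability was read by BacTiter-Glo luminescence.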
SARS PLpro yeast: qHTS of Yeast-based Assay for SARS-CoV PLP. S. cerevisiae expressing SARS-CoV PLpro, growth rescue; control for the full effect not named in the record. Potency, µM (doses to about 32.9 µM), without a hit: at the top dose activity, positive = growth rescue. 330,000 tested, 0.19% active; also: 0% is about no effect; nearly all actives have a fitted effect of over 55% in size; growth read by luminescence after 48 h
Marburg entry inh: qHTS for inhibitors of binding or entry into cells for Marburg Virus. 300,000 tested, 1.8% active. Marburg virus pseudotyped entry inhibition, cell reporter; control for the full effect not named in the record; about a third of the inactives were read at about 46 µM. Potency, µM (highest dose often 37.8 µM), for inactives: at the highest dose activity change, negative = inhibition, hits mostly inhibitors; active = well fitted inhibition curve with a large enough effect; inconclusive = small, poorly fitted or top-dose-only effect, or effect the other way; inactive = flat fitted curve, though single readings scatter; tested in HEK293 cells; about a fifth of its hits are not listed in these tables; also: % is scaled to controls: 0 for no effect and ±100 for the full control effect; luciferase read-out
Lassa entry inh: qHTS for Inhibitors of binding or entry into cells for Lassa Virus. Lassa virus pseudotype entry inhibition, cell reporter; control for the full effect not named in the record. Potency, µM (doses to about 37.9 µM), for inactives: at the top dose activity change, negative = inhibition, hits mostly inhibitors. 300,000 tested, 1.2% active; active means well fitted inhibition curve with a large enough effect; inconclusive means small, poorly fitted or top-dose-only effect, or effect the other way; inactive means flat fitted curve, though single readings scatter; tested in HEK293 cells; also: % is scaled to controls: 0 for no effect and ±100 for the full control effect; nearly all actives have a fitted effect of over 50% in size; luciferase read-out
Cruzain inh noDet: qHTS Assay for Promiscuous and Specific Inhibitors of Cruzain (without detergent). purified cruzain, Z-FR-AMC fluorescence, no detergent. Potency, µM, for the others: max response, negative = inhibition, hits mostly inhibitors. 200,000 tested, 2.3% active. AID 1476, 2009; active = well fitted curve in the direction sought with a large enough effect; inconclusive = small, poorly fitted or top-dose-only effect, or another doubt; inactive = no such curve, though single readings can be large; an effect the other way counts as inactive or inconclusive;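 also: plate controls were enzyme without inhibitor for no effect and buffer without enzyme for full effect; nearly all actives have a fitted effect of over 40% in size; top concentration of the series not given in the record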
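Purified cruzain at 1.5 nM, pre-incubated 15 min with compound at room temperature in 100 mM sodium acetate pH 5.5, 5 mM DTT, 0.00005% Triton X-100. Reaction started with 2 uM Z-FR-AMC; AMC fluorescence increase over 60 s gives rate.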
An asterisk follows results filed as active; ? = inconclusive; / = not tested or not shown; & = joins results of further samples; [ ] = dose if it differs, or a comment. Unless noted, calls follow the shape of the dose curve; as a rule, active means well fitted rising curve with a large enough effect; inconclusive means small, poorly fitted or top-dose-only effect; inactive means no such curve, though single readings can be large or run the other way. Potency is read from the fitted curve at half-maximal effect.

SMILES | Cruzain Triton | 2A StopGo | NS1 inh | RE007 growth inh | SARS PLpro yeast | Marburg entry inh | Lassa entry inh | Cruzain inh noDet
C[C@]12CC[C@@H](O)CC1=CCC1C2CC[C@@]2(C)C1CC[C@@H]2N (some centres not stated) | / | -10% | / | -5% | -4% | -1%[46.1 µM] | -4%[46.1 µM] | /
CCOc1ccc(NC(=O)[C@@H](c2ccccc2)N2Cc3ccccc3C2=O)cc1 | -3.8% | 6% | / | / | / | 3%[46.1 µM] | 26%[46.1 µM] | -2%
CSc1ccccc1NC(=O)COc1ccc(S(=O)(=O)N2CCCC2)cc1 | -1.4% | -11% | -6% | 0% | 12% | -19% | -22% | 1%
CCCn1c(SCC(=O)Nc2ccc(OCC)cc2)nnc1C(C)C | 1.6% | 13% | -5% | 18% | -24% | -22%[46.1 µM] | 4% | 1%
Cc1ccc(/C=C2\SC(=S)N(CCCC(=O)Nc3cccnc3)C2=O)cc1 | / | ? | 24% | -5% | 2% | ? | ? | /
CC(/C=N/NC(=O)c1cc(-c2ccc(C)s2)[nH]n1)=C\c1ccccc1 | -2.7% | -1% | 10% | 9% | -9% | ? | ? | ?
CC(=O)N1c2ccc(S(=O)(=O)N3CCCC3C(=O)NCc3ccccc3Cl)cc2CC1C (configuration not stated) | / | -5% | 6% | -6% | -1% | / | / | /
Cc1ccc(C(=O)N(CC(=O)NC2CCCC2)Cc2cccs2)s1 | 2.0% | 19% | -8% | -5% | 5% | 11% | 8% | -12%
CCOc1ccc(C(=O)CSc2nc3cc(C(=O)NC4CCCC4)ccc3c(=O)n2CC2CCCO2)cc1 (configuration not stated) | 4.5% | -6% | / | / | / | / | -1%[46.1 µM] | -6%
CCc1ccccc1NC(=O)c1cc(-c2cccc(O)c2)on1 | 6.2% | 16% | -8% | 8% | 1% | / | / | ?
Cc1cc(C)c2c(c1)[C@@H]1C=CC[C@@H]1[C@H](c1ccc(S(=O)(=O)N3CCOCC3)cc1)N2 | -8.0% | -19% | ? | -2% | -13% | 9% | -3% | -4%
O=C(Nc1ccncc1)c1cc(-c2cccc(Br)c2)nc2ccccc12 | / | ? | / | 2% | -20% | ? | ? | /
Cc1ccccc1CN1CCN(S(C)(=O)=O)CC1 | -0.5% | -10% | -2% | ? | 19% | -1% | -3% | -15%
CCN1C(=O)/C(=C/c2ccc(C)o2)N(C)C1=S | -4.9% | 26% | -47% | ? | -74% | 6% | 0% | 6%
Cc1ccc(S(=O)(=O)Oc2ccc(C(c3c(C)[nH][nH]c3=O)c3c(C)[nH][nH]c3=O)cc2)cc1 | -1.2% | 0% | ? | 2% | 14% | 8% | 2% | -1%
COc1ccccc1C(=O)NCC(=O)OCC(=O)c1cccc2ccccc12 | / | -12% | / | 11% | -8% | 14%&14%[46.1 µM] | 6% | /
Cc1ccc2c(c1)NC(=O)C(CC(=O)Nc1ccc(Br)c(C)c1)O2 (configuration not stated) | / | -12% | 5% | -16% | 0% | / | / | /
O=C1C(=O)N(Cc2ccncc2)C(c2ccccc2F)/C1=C(\O)c1ccc2c(c1)OCCO2 (configuration not stated) | / | 19% | 2% | 10% | 0% | / | / | /
Cc1noc(C)c1C(=O)NNc1cc(Cl)ccc1Cl | / | -3% | -40% | 158% | -4% | ? | -4%[46.1 µM] | /
c1ccc(C2CC(c3ccccc3)C(c3ccccc3)N2)cc1 (configuration not stated) | / | -26% | 13% | -15% | 3% | ? | 21% | /
COc1ccc2c(c1)CCc1cc(C(=O)O)sc1-2 | / | -5% | -7% | -8% | -5% | / | / | /
Cc1cc(N2CCN(c3ccccn3)CC2)n2c(nc3ccccc32)c1C#N | -0.7% | -19% | -7% | 1% | -9% | -6% | -29% | -1%
O=C(Nc1ccccc1N1CCOCC1)c1ccc2c(c1)OCO2 | / | 0% | -12% | 4% | -1% | 16%[46.1 µM] | -25% | /
CCOc1ccc(S(=O)(=O)NC(Cc2cnc[nH]2)C(=O)O)cc1 (configuration not stated) | / | -4% | / | -1% | 3% | 2%[46.1 µM] | 7% | /
Cc1cc(=O)[nH]c(N/N=C/c2ccccn2)n1 | -3.5% | 51%[activator] | 6% | -6% | ? | 2.6µM* | 7.1µM* | -10%
CCc1ccc2oc(C(=O)Nc3nonc3CC)c(C)c2c1 | -3.6% | 45%&31%[activator] | 0% | 0% | 8% | 36%[46.1 µM] | 11%[46.1 µM] | -19%
COC(=O)c1cccc(-n2cnnn2)c1 | 1.2% | 17% | 3% | -12% | 6% | -2% | -13% | 9%
CC(C)c1ccc(NC(=O)c2ccc(F)c(S(=O)(=O)N3CCc4ccccc43)c2)cc1 | -0.4% | ? | / | / | / | / | ? | 11%
COC(=O)n1c(=O)oc2cc(S(=O)(=O)N3CCCCC3)ccc21 | -3.1% | 11% | -6% | 9% | 6% | ? | -15% | 8%
O=c1c2cc(Cl)ccc2[nH]c(=S)n1Cc1cccs1 | -15% | 10% | 12% | 3% | 10% | 1% | ? | -12%
CCC(=O)N1CCN(c2ccc(NC(=O)c3ccco3)cc2)CC1 | 1.7% | 20% | -16% | -6% | 2% | 5% | 4% | -11%
CCN1CCN(c2nc(-c3ccccn3)nc3ccccc23)CC1 | 3.8% | -6% | -2% | -12% | 6% | -11% | 0% | -7%
COc1ccc(C(O)(C(C)C)C(CN2CCOCC2)c2ccccc2)cc1 (configuration not stated) | / | ? | -7% | -15% | -1% | / | / | /
COC(=O)Nc1ccc(OCc2ccccc2)cc1 | 2.5% | 60%[activator] | -40% | 14% | -13% | ? | ? | -5%
Cc1cc(Cl)c(S(=O)(=O)NCC2CCCO2)cc1OCC(N)=O (configuration not stated) | 5.2% | 35%[activator] | 8% | 11% | 13% | 3%[46.1 µM] | 14% | -2%
COc1ccc(CS(=O)(=O)CC(C)(O)c2ccc(Cl)cc2)cc1 (configuration not stated) | / | ? | -6% | 6% | 0% | / | / | /
CCc1cc(CNC(=O)CC2C(=O)NCCN2Cc2ccccc2C(F)(F)F)on1 (configuration not stated) | / | -5% | 5% | -10% | 0% | 0%[46.1 µM] | 0% | /
COc1ccc(C(=O)N/N=C/c2ccc3cccc(O)c3n2)cc1 | / | 9% | / | -6% | -2% | ? | -17%[46.1 µM] | /
COc1ccc(Nc2nc(CC(C)=O)ns2)cc1OC | 3.5% | 19% | 7% | 0% | -2% | 15% | -4% | 4%
O=C(CN1C(=O)NC2(CCCC2)C1=O)N1CCN(S(=O)(=O)c2cccc(F)c2)CC1 | / | 0% | -3% | 5% | / | -2% | 12% | /
Cc1ccc(CCc2nnc(SCC(=O)Nc3cccc(Cl)c3)n2-c2ccccc2)o1 | -0.4% | -11% | 11% | 13% | 7% | -19% | -17% | -30%
COc1ccc(OC)c(NC(=S)NCC(c2cccnc2)N2CCOCC2)c1 (configuration not stated) | / | -15% | / | -2% | -2% | 10% | -3% | /
CC(=O)NC1CC2CCC(C1)N2Cc1ccc(C)cc1 (configuration not stated) | 4.7% | 7% | -3% | -8% | -3% | 13% | -4% | -5%
O=S(=O)(CC(O)(c1ccccc1)c1ccccc1)CC(O)(c1ccccc1)c1ccccc1 | / | 0% | / | 17% | / | 12% | -10% | /
O=C(NC(=S)NNC(=O)c1ccc(Cl)cc1Cl)c1cccnc1 | 3.4% | -3% | -13% | 2% | -23% | ? | 15% | -11%
NC(=O)C1CC12c1ccccc1-c1ccccc12 (configuration not stated) | / | -3% | -4% | 7% | 2% | ? | 3%[46.1 µM] | /
CCN(CC)CCNC(=O)c1c(O)c2ccccc2n(Cc2ccccc2)c1=O | -6.5% | -3% | -7% | -11% | 7% | ? | -26% | -3%
Cc1nc(C)c(-c2csc(Nc3cccnc3)n2)s1 | -7.8% | 14% | -92% | 5% | -15% | ? | -3% | -10%
CC1=NN(C(=O)c2c(Br)c(C)nn2C)C(O)(C(F)(F)F)C1 (configuration not stated) | -1.2% | -16% | -1% | 4% | 24% | -9% | 13% | -4%
CCOC(=O)N1CCC(N2Cc3cccc(C(=O)NCC4CCN(CC(C)C)C4)c3C2=O)CC1 (configuration not stated) | -1.1% | -21% | 12% | 1% | -3% | 0% | / | 2%

One compound at a time, as listed above.
Entry for NC(=O)C1CC12c1ccccc1-c1ccccc12 (configuration not stated) : Cruzain Triton = /; 2A StopGo = -3%; NS1 inh = -4%; RE007 growth inh = 7%; SARS PLpro yeast = 2%; Marburg entry inh = ?; Lassa entry inh = 3%[46.1 µM]; Cruzain inh noDet = /
Entry for CC(=O)NC1CC2CCC(C1)N2Cc1ccc(C)cc1 (configuration not stated) : Cruzain Triton = 4.7%; 2A StopGo = 7%; NS1 inh = -3%; RE007 growth inh = -8%; SARS PLpro yeast = -3%; Marburg entry inh = 13%; Lassa entry inh = -4%; Cruzain inh noDet = -5%

The list goes on:
SMILES | Cruzain Triton | 2A StopGo | NS1 inh | RE007 growth inh | SARS PLpro yeast | Marburg entry inh | Lassa entry inh | Cruzain inh noDet
O=C(CN1CCCCCC1)NCC1CCCO1 (configuration not stated) | / | -14% | 0% | -7% | 1% | / | / | /
CC(=O)Nc1ccc(NC(=O)C(NS(=O)(=O)c2ccc(Br)s2)c2ccccc2)cc1 (configuration not stated) | -4.1% | 5% | / | / | / | ? | -24%[46.1 µM] | -7%
CN1C(=O)C(C)(C)c2cc(S(=O)(=O)N(C)Cc3ccccc3)ccc21 | / | -5% | -6% | 4% | 1% | / | / | /
CCc1cccc2c(C(=O)C(NC(C)CC)c3ccccc3)c[nH]c12 (configuration not stated) | / | -16% | -22% | -20% | -1% | 12µM* | 16µM* | /
O=C1CC(c2ccccc2)CN1 (configuration not stated) | / | -14% | 6% | 4% | 0% | -3% | 7% | /
CCN(CC(=O)Nc1c(F)cccc1F)C(=O)c1cc(S(=O)(=O)NCc2ccccc2)ccc1C | / | 37%[activator] | / | -3% | / | -11% | -2% | /
